BCLXL inh: inhibitors of human Bcl-xL, primary screen, biochemical, fluorescence polarization, HTS | GST-Bcl-xL / FITC-Bim BH3 peptide fluorescence polarization | inhibition, % at 10.9 µM | actives 0.7% (n = 320,000) | AID 2129, 2009;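 active = inhibition above the mean of all tested compounds plus 3 SD, cutoff set per campaign, cut at about 30% in these data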;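 note: 0% = DMSO wells and 100% = unlabeled Bim-BH3 peptide competitor; inhibitors lower millipolarization by displacing the labeled peptide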
PME-1 inh: PME-1 inhibitors via competitive probe labeling, primary screen, biochemical, fluorescence polarization, FP-Rh probe, HTS. recombinant PME-1. inhibition, % at 5.9 µM. actives 0.53% (n = 320,000);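 active = inhibition above the campaign mean of all compounds plus 3 SD, cut at about 26% in these data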;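 note: competitive labeling of PME-1 active site by serine hydrolase directed probe; 0% = PME-1 with DMSO and 100% = wells lacking PME-1 enzyme; inhibitors block probe labeling so polarization falls and inhibition rises; many of its hits are not listed in these tables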
Fam108B inh: mouse Fam108B serine hydrolase inhibitors, primary screen, counter-screen for RBBP9 inhibitor project, biochemical, fluorescence polarization | actives 0.33% (n = 300,000) | recombinant Fam108B, FP-Rh probe fluorescence polarization | inhibition, % at 9.51 µM;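 active = inhibition above the screen mean inhibition plus 3 SD, computed separately per campaign, cut at about 18% in these data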;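 note: inhibitors lower polarization as less probe binds the enzyme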
pPAFAH inh: pPAFAH enzyme inhibitors, primary screen, biochemical, fluorescence polarization, human. actives 1.5% (n = 330,000). recombinant pPAFAH, FP-rhodamine probe fluorescence polarization. inhibition, % at 3.39 µM. Platelet-activating factor acetylhydrolase (Homo sapiens), Q13093;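 active = inhibition above the mean inhibition across the screen plus 3 SD, cut at about 25% in these data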;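 note: inhibitors block binding of the rhodamine activity-based probe so polarization drops; 0% = enzyme with DMSO and 100% = wells lacking pPAFAH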
MEX-5 binding: MEX-5 zinc finger RNA-binding disruptors – biochemical, C. elegans, fluorescence polarization, MLPCN library, primary screen. MEX-5/FITC-TCR2 RNA binding; stronger effect = lower value. activity score (negative = inhibition of binding), % at 10 µM. actives 0.38% (n = 300,000);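 active = inhibition past about -25% in most replicates, and total fluorescence under double the plate's negative control median, limit read from the data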;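 note: 0% = DMSO and -100% = 5 µM competing unlabeled TCR2 RNA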
AHR act: AHR activators, primary screen, cell-based, luminescence, luciferase reporter, human | Aryl hydrocarbon receptor (Homo sapiens), P35869 | AHR-responsive luciferase reporter cells | activation, % at 5 µM | actives 2.5% (n = 320,000) | AID 2796, 2010; in the data active = activation above about 47%;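 note: 0% = vehicle wells and 100% = reference agonist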
MCL1-BIM inh: inhibitors of MCL1 binding to BIM-BH3, primary screen, biochemical, fluorescence polarization. GST-MCL1 / FITC-Bim-BH3 fluorescence polarization. Induced myeloid leukemia cell differentiation protein Mcl-1 (Homo sapiens), Q07820. inhibition, % at 10.9 µM. actives 0.68% (n = 320,000);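 active = inhibition above the mean inhibition of all tested compounds plus 3 SD, set per campaign, cut at about 40% in these data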;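 note: 0% = DMSO wells and 100% = unlabeled Bim-BH3 peptide control; higher means more loss of mP so more displacement of Bim peptide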
GLD-1 TGE inh: GLD-1/TGE RNA complex disruptors, primary screen, biochemical, fluorescence polarization; Female germline-specific tumor suppressor gld-1 (Caenorhabditis elegans), Q17339; purified GLD-1 + fluorescein TGE RNA; actives 0.44% (n = 320,000); AID 2280, 2010; inhibition, % at 5.96 µM;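 active = percent inhibition above a per-plate cutoff, the plate mean of test compounds plus 3 SD, cut at about 30% in these data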;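 note: 0% = DMSO wells with GLD-1 and probe and 100% = wells lacking GLD-1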
Target sequence (Q17339 whole entry, looked up): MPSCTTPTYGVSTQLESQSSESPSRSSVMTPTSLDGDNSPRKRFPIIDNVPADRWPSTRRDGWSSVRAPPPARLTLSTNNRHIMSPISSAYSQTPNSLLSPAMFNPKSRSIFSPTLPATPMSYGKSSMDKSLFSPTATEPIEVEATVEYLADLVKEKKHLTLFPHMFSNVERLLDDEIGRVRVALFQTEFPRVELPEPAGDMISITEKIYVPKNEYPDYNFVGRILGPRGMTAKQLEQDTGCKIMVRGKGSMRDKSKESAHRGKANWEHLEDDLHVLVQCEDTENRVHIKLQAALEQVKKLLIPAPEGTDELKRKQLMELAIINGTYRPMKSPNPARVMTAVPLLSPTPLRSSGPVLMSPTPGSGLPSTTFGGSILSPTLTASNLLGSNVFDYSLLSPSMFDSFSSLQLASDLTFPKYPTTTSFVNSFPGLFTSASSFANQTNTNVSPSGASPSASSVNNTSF
* marks the source's active call; other numbers are inactive results; . = not tested or not shown. Only part of the results is shown; the hit share may differ from the screen's.

SMILES | BCLXL inh | PME-1 inh | Fam108B inh | pPAFAH inh | MEX-5 binding | AHR act | MCL1-BIM inh | GLD-1 TGE inh
Cc1ccc(SCc2noc(-c3c(C)noc3C)n2)cc1 | 6 | 0 | -2 | 13 | 3.5 | -2 | 12 | 3
Cc1ccc(CCNC(=O)CSCc2ccc(F)cc2)cc1 | 3 | 1 | 3 | 13 | 0.5 | 3 | -4 | 1
Cc1ccc(CCNC(=O)c2cccc(N3CCCC3=O)c2)cc1 | 4 | -2 | 3 | 3 | . | 8 | 6 | -1
COc1ccc(C(=O)NCc2nnc(SCC(=O)N3CCCCC3)o2)cc1 | 1 | -7 | 1 | -2 | 0.9 | -2 | -5 | 1
Cc1ccc(SCC(=O)NCCSCc2ccccc2)cc1 | 7 | 3 | 0 | 11 | 0.2 | 1 | 11 | 2
Cc1cc(NC(=O)CSc2ccc(Cl)cc2)no1 | 8 | 4 | -5 | 3 | -2.3 | -2 | 15 | 4
CCN(c1ccccc1)S(=O)(=O)c1ccc(Cl)c(C(=O)O)c1 | 7 | -4 | -6 | -1 | -1.0 | 0 | 2 | 3
CC12CCC(C1)C(C)(C)C2OC(=O)c1ccccc1C(=O)O (stereo not given) | -1 | 0 | 0 | 3 | -0.8 | -3 | -4 | 2
N#Cc1nc(COc2ccc(Br)cc2)oc1N1CCCCCC1 | 4 | 1 | 0 | 0 | -0.5 | 3 | 3 | 8
CC(C)(C)c1cc(-c2n[nH]c(=S)n2-c2ccc(Cl)cc2)n[nH]1 | -15 | 0 | -1 | 4 | -0.1 | 1 | -10 | -3
Cc1cccc(C(=O)NCC(=O)NCCSc2ccc(Br)cc2)c1 | 6 | -1 | -2 | 3 | 1.7 | 0 | 3 | 2
CC(C)(C)c1cccc(Oc2nn[nH]n2)c1 | 8 | -6 | 2 | -1 | 1.2 | 4 | 1 | 4
CCC(C)(C)c1ccc(Oc2cccc(C(=O)O)c2)cc1 | -1 | -7 | 3 | 10 | 1.3 | 4 | -1 | 3
O=C(Cc1ccc(Br)cc1)NNC(=O)c1cccs1 | . | . | . | 0 | . | 6 | . | -6
O=C(O)C1CCC(CNS(=O)(=O)c2ccc(Br)cc2)CC1 (stereo not given) | -3 | 3 | 0 | 0 | -0.7 | 1 | 2 | 6
CCN(C(=O)COC(=O)c1c(-c2ccccc2)noc1C)C1CCS(=O)(=O)C1 (stereo not given) | -5 | -8 | -4 | -3 | 1.0 | 2 | -6 | -2
Cc1c(CC(=O)O)c(=O)oc2cc(OCc3ccc(Br)cc3)ccc12 | 7 | 0 | 1 | 2 | 0.8 | 0 | 3 | 0
O=C(NNS(=O)(=O)c1ccc(Br)cc1)c1sccc1-n1cccc1 | 4 | 1 | 1 | 4 | -0.8 | 3 | 3 | -3
CC(Sc1ccc(Cl)cc1)C(=O)Nc1ccccc1-c1ccccc1 (stereo not given) | -1 | 1 | -4 | 2 | 1.4 | 2 | 3 | 4
COc1cc(C(=O)NC(C)c2ccc3ccccc3c2)cc(Cl)c1O (stereo not given) | 6 | 3 | 1 | 8 | 1.0 | 1 | 5 | 6
CCN(CC)C(=S)NC(=O)c1ccc(Cl)cc1Cl | 7 | 2 | -2 | -4 | 1.8 | 0 | 13 | -5
Cn1c(NCCO)nc2c(c1=O)C1(CCCCC1)Cc1ccccc1-2 | 4 | 1 | 1 | 13 | 3.4 | 0 | -5 | 0
O=C(COc1ccc(Br)cc1)NNC(=O)c1ccc(-n2cncn2)c([N+](=O)[O-])c1 | 5 | -1 | . | 11 | . | 3 | -9 | 7
CC(C)(C)C1CCC(=NNS(=O)(=O)c2ccc(Br)cc2)CC1 (stereo not given) | 2 | -2 | 1 | 6 | -1.5 | 5 | -4 | 5
COc1cccc(C(=O)NCC2(c3ccccc3)CCCC2)c1OC | 5 | -1 | -4 | 15 | 1.2 | 14 | -2 | 4
Cc1ccc(S(=O)(=O)NC(Cc2ccc(Cl)cc2)C(=O)O)cc1 (stereo not given) | 11 | 3 | 5 | 0 | 2.5 | 3 | 13 | 0
Cc1ccc(CCNC(=O)c2ccc(CS(=O)(=O)c3ccccc3C)o2)cc1 | 4 | 2 | 1 | 8 | 0.9 | 1 | 5 | 2
Cc1ccc(SCC(=O)O/N=C(\N)c2ccncc2)cc1 | 6 | 5 | 1 | 1 | -1.2 | -3 | 9 | 3
CC1CCN(S(=O)(=O)c2cccc(C(=O)NC3CCCC3)c2)CC1 | 3 | 2 | -3 | 4 | 2.0 | -2 | -1 | 4

By substructure: the compounds so far containing a Cl atom (seven)
SMILES | BCLXL inh | PME-1 inh | Fam108B inh | pPAFAH inh | MEX-5 binding | AHR act | MCL1-BIM inh | GLD-1 TGE inh
Cc1cc(NC(=O)CSc2ccc(Cl)cc2)no1 | 8 | 4 | -5 | 3 | -2.3 | -2 | 15 | 4
CCN(c1ccccc1)S(=O)(=O)c1ccc(Cl)c(C(=O)O)c1 | 7 | -4 | -6 | -1 | -1.0 | 0 | 2 | 3
CC(C)(C)c1cc(-c2n[nH]c(=S)n2-c2ccc(Cl)cc2)n[nH]1 | -15 | 0 | -1 | 4 | -0.1 | 1 | -10 | -3
CC(Sc1ccc(Cl)cc1)C(=O)Nc1ccccc1-c1ccccc1 (stereo not given) | -1 | 1 | -4 | 2 | 1.4 | 2 | 3 | 4
COc1cc(C(=O)NC(C)c2ccc3ccccc3c2)cc(Cl)c1O (stereo not given) | 6 | 3 | 1 | 8 | 1.0 | 1 | 5 | 6
CCN(CC)C(=S)NC(=O)c1ccc(Cl)cc1Cl | 7 | 2 | -2 | -4 | 1.8 | 0 | 13 | -5
Cc1ccc(S(=O)(=O)NC(Cc2ccc(Cl)cc2)C(=O)O)cc1 (stereo not given) | 11 | 3 | 5 | 0 | 2.5 | 3 | 13 | 0

Screening data: PubChem BioAssay, several laboratories
